VACV mCherry inh = inhibitors of vaccinia virus infection (mCherry reporter signal). AID 720579. Potency, µM (doses to about 36.5 µM), inactives show at the highest dose activity change, negative = inhibition, actives largely listed as inhibitors. actives 0.63% (n = 310,000). Vaccinia virus mCherry reporter infection, fluorescence; about a quarter of the inactives have no number; active = well fitted inhibition curve with a large enough effect; inconclusive = small, poorly fitted or top-dose-only effect; inactive = no such curve, though single readings can be large or run the other way; tested in A549 cells; note: nearly all actives have a fitted effect of over 35% in size; inactives centre near -10
VACV Venus inh = inhibitors of vaccinia virus (Venus reporter) | actives 0.46% (n = 330,000) | Vaccinia virus Venus reporter expression, fluorescence | Potency, µM (titrated, usually from 36.5 µM), for inactives: at the top dose activity change, negative = inhibition, most hits filed as inhibitors; active means well fitted inhibition curve with a large enough effect; inconclusive means small, poorly fitted or top-dose-only effect; inactive means no such curve, though single readings can be large or run the other way; tested in A549 cells; note: nearly all actives have a fitted effect of over 30% in size; inactives centre near -10
An asterisk follows results filed as active; i = inactive; ? = inconclusive; . = not tested or not shown; & = joins results of further samples; [ ] = remark or other dose. % is set by controls: 0 for no effect and ±100 for the full control effect; potency is the fitted concentration of half-maximal effect. No enrichment for hits, and some 0.87% of all compounds hit somewhere here.

Each structure is followed by: VACV mCherry inh, VACV Venus inh
- CCOC(=O)C1=C(CS(=O)(=O)c2ccc(F)cc2)NC(=O)NC1c1ccc(OCC)c(OC)c1 (stereo unspecified)
  3%, -1%
- COc1ccc(Cc2nnc(SCc3ccc([N+](=O)[O-])cc3)o2)cc1
  -5%, 12%
- CC(C)CNC(=O)CSc1ccc(S(=O)(=O)N(C)C2CCCCC2)cn1
  -1%, -14%
- O=C(NCc1cccs1)c1cccnc1Cl
  -3%, 2%
- Cc1ccc(S(=O)(=O)NCCCNc2ccc([N+](=O)[O-])cc2)cc1
  -45%, -9%
- Cc1cccc(NC(=O)CSc2n[nH]c(-c3ccncc3)n2)c1C
  i, 0%
- CCc1nnc(NC(=O)c2cc(S(=O)(=O)N3CCN(c4ccccc4)CC3)ccc2Cl)s1
  -11%, -3%
- COCCN(C(=O)COC(=O)CCn1c(C)csc1=O)c1c(N)n(Cc2ccccc2)c(=O)[nH]c1=O
  -11%, -13%
- C/C(CC(=O)NC(C)(C)C)=N\NC(=O)c1ccccc1N
  -12%, -5%
- Cc1c(C(=O)NCc2ccc(F)cc2)oc2ccc(S(=O)(=O)N3CCOCC3)cc12
  -19%, -13%
- CC(C)(C)c1ccc2oc(=O)cc(-c3cccc(-c4ccc(C(F)(F)F)cc4)c3)c2c1
  -29%, -2%
- Cc1cc(N)n2nc(C(F)(F)F)nc2n1
  -11%, -8%
- O=C1CCN(CCc2ccccc2)CCN1[C@H](COc1ccccc1)c1ccccc1
  ?, -20%&-24%
- COc1ccc(CNC(=O)C2CCC(CNS(=O)(=O)c3ccc4c(c3)CCCC(=O)N4)CC2)cc1 (stereo unspecified)
  -1%, 2%
- Cc1ccc2c(c1)C(=O)C(=O)N2Cc1ccc(F)cc1
  -27%, -24%
- COc1cc2c3nnc(-c4ccccc4)c-3cn(Cc3ccc(F)cc3)c2cc1OC
  -16%, -3%
- COCC(C)n1c(C)cc(C(=O)CSc2nnc(-c3ccco3)o2)c1C (stereo unspecified)
  -15%, -5%
- Nc1nc(N)c(S(=O)(=O)c2ccccc2)c(Nc2ccccc2)n1
  0%, -4%
- O=C(COC(=O)CNC(=O)c1ccco1)Nc1ccc(Cl)cn1
  -1%, 6%
- CC(C)N(C(=O)C(=O)c1cccn1-c1ccccc1C#N)C(C)C
  -7%, -4%
- CN(C)S(=O)(=O)c1ccc(N2CCCC2)c(C(=O)Nc2cccc(F)c2)c1
  -14%, -8%
- CN(Cc1ccccc1)S(=O)(=O)c1ccc(Cl)c(C(=O)OCC(N)=O)c1
  i, -11%
- O=C(O)CCC(=O)Nc1ccc(C(=O)N2CCCCC2)cc1
  -2%, 12%
- CCC1Oc2ccccc2N(CC(=O)NCCCN2CCCCC2C)C1=O (stereo unspecified)
  -6%, 0%
- Cc1ccc(S(=O)(=O)N(CC(O)CN2CCCCC2)c2cccc([N+](=O)[O-])c2)cc1 (stereo unspecified)
  -1%, -14%
- CSc1nsc(SCC(=O)Nc2ccc(F)cc2F)n1
  -9%, -14%
- CC1(C)Cc2c(sc3c2c(=O)n(-c2ccc(Cl)cc2)c(=O)n3CC(N)=O)CO1
  -17%, -8%
- CCc1ccccc1NC(=O)CN1CCN(CC(=O)Nc2ccc(-c3ccccc3)cc2)CC1
  -20%, 5%
- CCc1ccccc1NC(=O)CSc1nnc(CCNC(=O)OC(C)(C)C)o1
  -3%, 3%
- O=C(CSc1nnc(CNC(=O)c2ccccc2)o1)NCc1ccccc1Cl
  -12%, -7%
- COc1ccc(S(=O)(=O)c2cc3cc(OC)ccc3oc2=O)cc1
  2%, 6%
- CC(C)OCCCn1c(-c2ccc(Br)cc2)c[nH]c1=S
  i, -22%
- Cc1ccc(S(=O)(=O)Oc2cccc(/C=N/n3cnnc3)c2)cc1
  ?, -28%
- COc1ccc(CCNC(=O)c2ccc(OC)c(OC)c2)cc1OC
  i, -11%
- O=C1CCCC[C@@H](CO)[C@H](O)C[C@H](c2ccccc2)O1
  i, -3%
- O=C(c1ccc(Nc2nc3ccccc3n3nnnc23)cc1)N1CCN(c2ccc(F)cc2)CC1
  -15%, -8%
- Cc1sc2ncnc(Sc3ccccc3C(=O)Nc3ccc(Br)cc3)c2c1C
  -19%, -9%
- NC(=O)c1ccccc1NC(=O)Nc1cccc(Cl)c1
  -17%, -18%
- O=C(COc1ccccc1)Nn1cnc2ccccc21
  -10%, -14%
- N#Cc1c(N)nc(SCc2ccccc2)c(C#N)c1-c1ccco1
  ?, ?
- CN1CCN(Cc2nc(Cc3cccc(F)c3)no2)CC1c1ccccc1 (stereo unspecified)
  -10%, -4%
- Cc1cccc(C)c1NC(=O)c1nc(S(=O)(=O)Cc2ccccc2F)ncc1Cl
  i, -10%
- COC(=O)/C(=C/c1cn(C(C)=O)c2ccccc12)[N+](=O)[O-]
  -10%, 6%
- CCOc1ccc(NC(=O)CN(C)C(=O)CCCc2nc3ccccc3c(=O)[nH]2)cc1OCC
  i, -17%
- Cc1ccn2c(=O)nc(SCC(=O)N3CCN(c4ccccc4)CC3)nc2c1
  i, -15%
- O=C(O)c1ccc(NC(=O)c2ccccc2NC(=O)c2ccccc2Br)cc1
  -10%, -5%
- COc1ccc(NC(=O)C(CCS(C)(=O)=O)NC(C)=O)cc1 (stereo unspecified)
  -10%, -5%
- CC1CCN(C(=O)Oc2ccccc2)CC1
  i, 3%
- CC(C)CCN1CCN(Cc2cn[nH]c2C2CCCCC2)CC1CCO (stereo unspecified)
  i, -10%
- O=C(OCC(=O)N1CCN(C(=O)c2ccco2)CC1)c1sc2ccccc2c1Cl
  -13%, 5%
- Cc1cscc1-c1ccc(C(=O)Nc2c(C)cccc2C)o1
  11%, -3%
- COc1ccc(CN2CCOCCOCCOCCOCC2)cc1
  i, -3%
- CC1CCCN(C(=O)c2cc3c(-c4ccc(Cl)cc4)nn(C)c3s2)C1 (stereo unspecified)
  1%, -11%
- OC(C#Cc1ccccn1)c1cccs1 (stereo unspecified)
  i, -8%
- Fc1ccc(C2CC(c3ccco3)=NN2c2ccccc2)cc1 (stereo unspecified)
  -7%, -25%
- O=S(=O)(c1ccc(OCC(O)CNC23CC4CC(CC(C4)C2)C3)c(Cl)c1)N1CCOCC1 (stereo unspecified)
  -7%, -26%
- O=C(Nc1ccccc1C(=O)NCCc1ccccc1)c1ccco1
  ., -24%
- CNC(=O)COc1ncnc2sc(C)c(C)c12
  ., -9%
- Clc1ccc(CNC2CCN(Cc3ccccc3)CC2)cc1
  -14%, -23%
- Cc1cccc(NC(=O)C2CCCN(S(=O)(=O)c3ccc4c(c3)oc(=O)n4C)C2)c1 (stereo unspecified)
  -22%&2%, -19%&-2%

Five records drawn at random from those above:
Each structure is followed by: VACV mCherry inh, VACV Venus inh
- CNC(=O)COc1ncnc2sc(C)c(C)c12
  ., -9%
- CC1CCCN(C(=O)c2cc3c(-c4ccc(Cl)cc4)nn(C)c3s2)C1 (stereo unspecified)
  1%, -11%
- Clc1ccc(CNC2CCN(Cc3ccccc3)CC2)cc1
  -14%, -23%
- Cc1ccn2c(=O)nc(SCC(=O)N3CCN(c4ccccc4)CC3)nc2c1
  i, -15%
- OC(C#Cc1ccccn1)c1cccs1 (stereo unspecified)
  i, -8%

Going on with the list:
Each structure is followed by: VACV mCherry inh, VACV Venus inh
- CNC(=O)COC(=O)/C=C/c1ccco1
  -7%, -12%
- Cc1cc(Cl)ccc1OCC(=O)Nc1c(C(=O)c2ccccc2)oc2ccccc12
  -13%, -6%
- CN(C)c1ccc(N=Cc2cccc3ccccc23)cc1
  37%[activator], 5%
- Cc1cc(NC(=O)CSc2cn(CCNC(=O)c3ccc(F)cc3)c3ccccc23)no1
  -12%, -24%
- CC(C)C(NC(=O)c1ccc(F)cc1)C(=O)OCC(=O)N1CC(=O)Nc2ccccc21 (stereo unspecified)
  -11%, 1%
- COCCNc1nc(NCc2cccs2)nc2ccsc12
  ?, -24%
- CCCCC/C=C\C\C=C/C=C/C=C/[C@@H](SC[C@H](N)C(=O)O)[C@@H](O)CCCC(=O)O
  -15%[0.293 µM], -9%[0.293 µM]
- O=C(O)CCCC(=O)Nc1nc(-c2ccccc2)cs1
  ., -29%
- Cc1ccccc1OC1C(=O)N(Cc2ccc3c(c2)OCO3)C1c1sccc1C (stereo unspecified)
  -20%, ?
- O=C(NCc1ccco1)c1ccc(-c2cccc(Cl)c2)o1
  -16%, -3%
- O=C(CN1C(=O)CCS(=O)(=O)c2ccccc21)NCc1ccc(F)cc1
  ., -17%
- Cc1ccccc1CCNC(=O)c1ccc2c(c1)c(C)c(C)n2Cc1ccccc1
  -18%, -10%
- CCN(CC)c1ccc(/C=N/c2sc3c(c2C#N)C2CCN3CC2)c(O)c1
  -14%, 109%[activator]
- Cc1ccc(S(=O)(=O)Nc2ccc(Br)cc2/C=N/n2cnnc2)cc1
  0%, -8%
- CCCCCN(C(=O)COC(=O)Cc1c(C)nc2ccccc2c1C)c1c(N)n(CCCC)c(=O)[nH]c1=O
  -26%, -9%
- CC(C)(C)c1ccc(C(=O)Oc2ccccc2CCC(=O)O)cc1
  -13%, -13%
- CC1=NNC(=O)C1CC(=O)N/N=C(\C)c1cccs1 (stereo unspecified)
  -2%, -7%
- COc1cccc(-c2nnc(SCC(=O)NC3CCCCC3)o2)c1
  -11%, -4%
- Cc1cccc(CCNC(=O)CCc2c(C)nc3c4c(C)cc(C)nc4nn3c2C)c1
  -18%, -14%
- Cc1ccc(CC(=O)Nc2cccnc2)cc1
  i, 2%
- O=C1CC[C@@H]2CC(N3CCN(c4ccccc4)CC3)C[C@@H]3CCN1[C@H]23 (stereo partly specified)
  i, -2%
- COC(=O)c1ccc(N2CCCCC2)c(NC(=O)c2ccco2)c1
  2%, -4%
- O=C(O)c1sccc1S(=O)(=O)N1CCN(c2ccc(C(F)(F)F)cn2)CC1
  9%, 5%
- COc1ccc(C(=O)C[n+]2cccc(C)c2C)cc1[N+](=O)[O-]
  i, -5%
- COc1ccc(C(=O)NC(C(=O)N2CCN(C/C=C/c3ccccc3)CC2)C(C)C)cc1 (stereo unspecified)
  i, -12%
- CN(CCNC(=O)C1CCN(S(=O)(=O)c2cnc[nH]2)CC1)Cc1ccccc1
  i, -15%
- Cc1cccc(NC(=O)c2cccc(C(=O)Nc3cccc(C)c3)c2)c1
  -20%, -11%
- Cc1ccc(Cl)cc1N1CCN(C(=O)CCS(=O)(=O)c2ccc3c(c2)oc(=O)n3C)CC1
  -22%, -11%
- CCC(=O)N1CCc2cc(Br)c(S(=O)(=O)CCC(=O)NCCc3ccccc3)cc21
  -4%, 5%
- Cc1ccc(C)c(NS(=O)(=O)c2cc(C(=O)Nc3ccccc3-c3ccccc3)ccc2Cl)c1
  i, -28%
- Cc1cnc(C(=O)Nc2ccc(-n3cnnn3)cc2)cn1
  -2%, -16%
- CCC(C)Sc1nnc(CSc2nc3nc(C)cc(C)n3n2)o1 (stereo unspecified)
  -2%, -14%
- O=S1(=O)CC(N2CCCCC2)CN1Cc1cn(Cc2ccccc2)nn1 (stereo unspecified)
  4%, -2%
- O=C(NCCC1=CCCCC1)C1CCN(S(=O)(=O)c2ccc(-n3cnnn3)cc2)CC1
  -12%, -12%
- Cc1nc(C(F)(F)F)ccc1C(=O)N1CCCC(C(=O)O)CC1 (stereo unspecified)
  i, 6%
- C=CCn1nnnc1SCC(=O)Nc1ccc(C(=O)OC)cc1
  i, 4%
- COc1ccc(NC(=O)Cn2cc(S(=O)(=O)N3CCN(c4ccccc4F)CC3)c3ccccc3c2=O)cc1Cl
  i, -9%
- COc1cccc(C(=O)Nc2nc(-c3ccc4c(c3)OCO4)cs2)c1
  -23%, -27%
- C=CCOc1ccccc1NC(=O)CN1C(=O)CNC1=O
  i, 1%
- Cc1ccnc(N/N=C/c2ccco2)n1
  i, -6%
- Cc1ccc(N2C(=O)C3C4C=CC(CNC(=S)Nc5cccc(Cl)c5)(O4)C3C2=O)cc1 (stereo unspecified)
  i, -12%
- CCCc1nnc(-c2cc(OC)c(OC)c(OC)c2)o1
  i, -7%
- C[C@@H]1CN([C@H](C)CO)C(=O)c2cc(NC(=O)Nc3ccc(C(F)(F)F)cc3)ccc2O[C@H]1CN(C)S(=O)(=O)c1ccc(Cl)cc1
  -9%, -26%
- C=C(C)Cn1c(CCNC(=O)C(C)C)nc2ccccc21
  -11%, -2%
- CC(NCc1ccccc1C(F)(F)F)C(O)c1ccccc1 (stereo unspecified)
  -15%, 3%
- COc1cccc(C(=O)Nc2cc(C(=O)NCCc3ccccc3)ccc2Cl)c1
  -23%, -11%
- COc1ccc(N(CC(=O)NC2CCCC2)C(=O)Cn2nnc(-c3ccc(OC)c(OC)c3)n2)cc1
  -4%, -2%
- CCCOc1ccc(C2C3=C(CCCC3=O)N(CC(=O)O)C3=C2C(=O)CCC3)cc1OCC
  i, -7%
- Cc1ccc(C)c(CN2C(=O)c3ccccc3S(=O)c3ccc(C(=O)N4CCN(c5cccc(Cl)c5)CC4)cc32)c1 (stereo unspecified)
  -30%, -26%
- COc1cc(=O)[nH]c(=O)n1CC(=O)c1ccccc1
  ., -4%
- C=CCOc1ccccc1CN(C(=O)CCl)c1ccc2c(c1)OCO2
  i, -13%
- O=C(Nc1ccc[n+](CC(=O)c2cccc3ccccc23)c1)c1ccccc1
  16µM*, ?

Compound activity as filed in PubChem BioAssay.
